# Bioassay records from PubChem BioAssay.
# Sfp inh – blocks B. subtilis Sfp PPTase activity. Biochemical Sfp PPTase activity, qHTS. Potency, µM, without a hit: max response, negative = inhibition, actives largely listed as inhibitors. hit rate 3.5% among 310,000; active means well fitted inhibition curve with a large enough effect; inconclusive means small, poorly fitted or top-dose-only effect, or another doubt; inactive means no such curve, though single readings can be large or run the other way;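 further: the enzyme is Sfp with the accession as filed and its product quenches rhodamine fluorescence; 0% = enzyme reaction without inhibitor and -100% = no enzyme wells; top concentration of the series not given in the record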
#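 Compounds were incubated with enzyme (final 15 nM) for 15 min at room temperature before substrate addition started the reaction. Fluorescence at 525 nm excitation, 598 nm emission was recorded immediately and after 30 minutes.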
# Numbers without * were called inactive; ? = inconclusive; & = joins results of further samples; ! = a repeat was not active. Potency means the concentration at half of the fitted maximal effect. An excerpt (hit frequency here may not be typical).
Molecule | Sfp inh
O=c1cc(-c2ccccc2)oc2c1ccc1ccccc12 | 45µM*
CC(=O)Nc1ccc(SCCN2CCN(C)CCC2=O)cc1 | -3%
NS(=O)(=O)c1cc2c(cc1Cl)N[C@@H](CC1CCCC1)NS2(=O)=O | 15%
CC1CCC2C(=O)N3C(CCC(C)[C@@H]3c3cccc(N4CCOCC4)c3)C(=O)N2C1c1cccc(Br)c1 (stereo partly specified) | -11%
CCCCCCc1c(C[C@H](N)C(=O)O)o[nH]c1=O | -18%&-18%
CC(=O)Nc1ccc(S(=O)(=O)N2N=NC3C2C2CC4C3(CN(C(=O)OC(C)(C)C)S4(=O)=O)O2)cc1 (stereo unspecified) | 12%
C=C(C)C(=O)OCCOC(=O)C(=C)C | -1%
C[C@@H]1CCN(C(=O)[C@H](CCCNC(=N)N)NS(=O)(=O)c2cccc3c2NC[C@H](C)C3)[C@@H](C(=O)O)C1 | 6%
N#Cc1ccc(CS(=O)(=O)c2nnnn2-c2ccccc2)cc1 | 9%
COc1ccc2nc(-c3ccc(N(C)C)cc3)sc2c1 | -26%
C[C@H](C(=O)OCO/N=[N+](\[O-])N1CCCC1)c1cccc2ccccc12 | 56µM*
COc1ccccc1-c1c(NC(=O)c2ccco2)n(-c2ccccc2)nc(C)c1=O | 19%
CCC(=O)O[C@H](CC(=O)O)C[N+](C)(C)C | -4%
CCC(C)C(N)C(=O)NC(CC(N)=O)C(=O)NC(CC(C)C)C(=O)NC(CCCCN)C(=O)NC(C)C(=O)NC(CC(C)C)C(=O)NC(C)C(=O)NC(C)C(=O)NC(CC(C)C)C(=O)NC(C)C(=O)NC(CCCCN)C(=O)NC(CCCCN)C(=O)NC(C(=O)NC(CC(C)C)C(N)=O)C(C)CC (stereo unspecified) | ?
CC(C)C[C@H](NC(=O)[C@H](CC(C)C)NC(=O)[C@@H](Cc1c[nH]c2ccccc12)NC(=O)[C@H](Cc1ccccc1)NC(=O)[C@@H](Cc1c[nH]c2ccccc12)NC(=O)[C@H](CCC(N)=O)NC(=O)[C@H](CCC(N)=O)NC(=O)[C@@H]1CCCN1C(=O)[C@H](CCCCN)NC(=O)[C@@H]1CCCN1C(=O)[C@H](N)CCCN=C(N)N)C(N)=O | -5%
CC1CCC2C(=O)N3C(CCC(C)C3c3ccccc3Br)C(=O)N2C1c1ccc(C#CCN(C)C)cc1 (stereo unspecified) | 18%
COc1cc(O)c(C(=O)c2ccccc2)cc1S(=O)(=O)O | 13%
C[Si](C)(C)O[Si](C)(C)C | 15%
CC(C)(C)c1cc(O)c(C(C)(C)C)cc1O | -13%&-21%
COC(=O)CC1c2ccccc2C=C(C)N1C(=O)OC (stereo unspecified) | 12%&-18%
O=C(O)CN(CCN(CC(=O)O)CC(=O)O)CC(=O)O | 13%&25%
CCOC(=O)OCC1OC(C#Cc2ccccc2)C=CC1OC(=O)OCC (stereo unspecified) | -2%
CCCn1c(C)nc2c(NC(C)CN(C)C)nc(C)nc21 (stereo unspecified) | 13%
O=S(=O)(O)c1ccc(O)cc1 | 7%
COC(=O)C1(C(=O)OC)C[C@H]2CON=C2[C@H]1c1ccccc1 | -20%&-2%
COC(=O)CC[C@H](N)C(=O)O | 2%
COC(=O)c1ccc(C(NC(=O)OCc2ccccc2)/C(F)=C/[C@@H](C)C(=O)NCCO)cc1 (stereo partly specified) | 13%
O=C(O)CCC(=O)C(=O)O | 5%
CC1(C)Oc2cc3c(cc2O1)OC(C)(C)O3 | -18%
CC[C@H]1C(c2cccc(Cl)c2)=NN(c2ccccc2)[C@@H]1CO | 17%
CC[C@H](C)[C@H](NC(=O)[C@H](C)NC(=O)CNC(=O)[C@H](CCCN=C(N)N)NC(=O)[C@H](C)NC(=O)[C@H](CC(C)C)NC(=O)[C@H](CCC(=O)O)NC(=O)[C@H](CC(C)C)NC(=O)[C@H](C)NC(=O)[C@@H](N)CCC(=O)O)C(=O)N[C@@H](Cc1ccccc1)C(=O)N[C@@H](CCC(N)=O)C(=O)N[C@@H](C)C(=O)O | 7%
COC(=O)c1c(C)c2c(c(C)c1O)OC(=O)c1c(C)c(Cl)c(O)c(Cl)c1O2 | -1%&11%

# Compounds above that have a tert-butyl group, in the order listed:
Molecule | Sfp inh
CC(=O)Nc1ccc(S(=O)(=O)N2N=NC3C2C2CC4C3(CN(C(=O)OC(C)(C)C)S4(=O)=O)O2)cc1 (stereo unspecified) | 12%
CC(C)(C)c1cc(O)c(C(C)(C)C)cc1O | -13%&-21%

# Continued:
Molecule | Sfp inh
COC(=O)C1=C(C(=O)OC)[C@@H]2N(Cc3ccccc3)c3ccccc3[C@@]23C[C@@H](C(=O)OC)N(S(=O)(=O)c2ccc(C)cc2)C3=N1 | -5%
C/C=C/C1Oc2ccc(OC)cc2N2C(=O)C(C)C(OCOC)C12 (stereo unspecified) | 5%
CCCCCCCCCCCCOS(=O)(=O)O | 21%
O=C(OCC(F)(F)F)[C@H](O)[C@@H](O)C(=O)OCC(F)(F)F | -2%
Cc1nc(-c2coc3c(O)c(O)ccc3c2=O)cs1 | ?
CNC(=O)C(N)CSC(C)C1=C(C)c2cc3[n-]c(cc4nc(cc5[n-]c(cc1n2)c(C)c5CCC(=O)O)C(CCC(=O)O)=C4C)c(C)c3C(C)SCC(N)C(=O)NC.[Fe+2] (stereo unspecified) | -2%
CCN(CC)CCC(c1ccc2c(c1)OCO2)c1c(OC)cc(OC)c2c(C)cc(=O)oc12 (stereo unspecified) | ?
COC(=O)/C=C/c1cc(O)ccc1O | 50µM*
N[C@H](C(=O)O)[C@H]1C[C@@H]1C(=O)O | -1%
OC[C@@H]1O[C@@H](n2cnc3c(N[C@H]4CCC[C@@H]4O)ncnc32)[C@H](O)[C@H]1O | 11%
CCCC[C@@H]1CCCO[C@@](C(=O)NCc2ccc(S(C)(=O)=O)cc2)(C(F)(F)F)C1 | 13%
Cc1ccc(NC2=CC(=O)c3sc(C)nc3C2=O)cc1 | -11%
CO[C@H]1COC(=O)C/C=C\[C@H](C)[C@@H](NS(=O)(=O)c2ccc(C)cc2)COC(=O)C/C=C\[C@@H]1C | 12%&19%
CC(C)CCCC(C)C1CC(=O)C2=C3CCC4CC(O)CCC4(C)C3CCC21C (stereo unspecified) | -11%
CC1(C)CC[C@]2(C(=O)O)CC[C@]3(C)C(=CCC4[C@@]5(C)CC[C@H](O)C(C)(C)C5[C@H](O)C[C@]43C)C2C1 (stereo partly specified) | 1%
CC12CCC=CC1C(c1ccc(/C=C/c3ccccc3)cc1F)N(Cc1ccccc1)C2=O (stereo unspecified) | -21%

# Some of these compounds in order of number of heavy atoms, falling:
Molecule | Sfp inh
CC12CCC=CC1C(c1ccc(/C=C/c3ccccc3)cc1F)N(Cc1ccccc1)C2=O (stereo unspecified) | -21%
CCCC[C@@H]1CCCO[C@@](C(=O)NCc2ccc(S(C)(=O)=O)cc2)(C(F)(F)F)C1 | 13%
N[C@H](C(=O)O)[C@H]1C[C@@H]1C(=O)O | -1%

# The list continues:
Molecule | Sfp inh
COC(=O)C1=C[C@@H](C(=O)OC)C2C3=C(C(=O)[C@@]2(C)NC(=O)c2ccccc2)[C@H](C)[C@@H]2C(=O)N(C)C(=O)[C@@H]2[C@@H]3C1 (stereo partly specified) | 3%
COC(=O)CCCC1=CC2=CC(=O)C(C)(OC(=O)c3cccs3)C(=O)C2=CO1 (stereo unspecified) | -1%
NC(=O)[C@H]1O[C@@H](O)[C@H](O)[C@@H](O)[C@@H]1O | 5%
O=C(O)[C@@H]1CN[C@@H](C(=O)O)C1 | -22%
CCOC(=O)N/N=C1/C[C@@H](O)[C@@H](O)[C@@H]2[C@@H]3C(=O)N(C[C@@H]4CCCO4)C(=O)[C@H]3CC[C@H]12 | -15%
COc1c(O)cc(O)cc1O | 4%
COc1ccc(C(CCN2CCOCC2)c2c(OC)cc(OC)c3c2OC(=O)CC3c2ccc(OC)cc2)cc1 (stereo unspecified) | -11%
OC[C@@H](O)[C@@H](O)CCc1ccccc1 | 19%

# More entries follow.
mol | Sfp inh
C[C@H]1Cc2c(COc3ccccc3)nc3c(c2CO1)CN(C(=O)Cc1cccs1)CC3 | 1%
CCC/C=C(\CCC)C(NS(C)(=O)=O)c1ccccc1 (stereo unspecified) | 27%
N[C@H](C(=O)N[C@@H]1C(=O)N2C(C(=O)O)=C(Cl)CS[C@@H]12)c1ccccc1 | 35µM*!
CC(C)C1=CC2=CC[C@H]3[C@](C)(C(=O)O)CCC[C@]3(C)C2CC1 (stereo partly specified) | ?
CSCC[C@@H]1NC(=O)[C@@H](NC(=O)[C@H](CCCNC(=N)N)NC(=O)[C@H](CC(C)C)NC(=O)[C@H](CCSC)NC(=O)[C@H](CC(=O)O)NC(=O)[C@H](Cc2ccccc2)NC(=O)[C@@H](N)CC(=O)O)CSSC[C@@H](C(=O)N[C@@H](Cc2c[nH]c3ccccc23)C(=O)N[C@@H](CCC(N)=O)C(=O)N[C@H](C(=O)O)C(C)C)NC(=O)[C@@H]2CCCN2C(=O)[C@H](CCCNC(=N)N)NC(=O)[C@H](Cc2ccc(O)cc2)NC(=O)[C@H](C(C)C)NC(=O)[C@H](CCCNC(=N)N)NC(=O)CNC(=O)[C@H](CC(C)C)NC1=O | 3%
CCCn1c(C)nc2c(NCCCN3CCCCC3C)nc(C)nc21 (stereo unspecified) | 21%
NCCC(=O)O | -4%&12%
CN(Cc1ccccc1)Cc1ccccc1 | 24%
Cc1noc(C)c1-c1ccc2ncnc(NCC3CCN(C)CC3)c2c1 | 11%
CCOC(=O)N1CC(C)N(/[N+]([O-])=N/Oc2ccc([N+](=O)[O-])cc2[N+](=O)[O-])CC1C (stereo unspecified) | -7%
CC(C)(C)OC(=O)C1=NOC2(C=CC(=O)C=C2)C1 | 5%&8%
COC(=O)C/C=C\[C@@H](C)[C@H]1C=C[C@H](O)[C@@H](CO)O1 | 23%

# Printed as active in Sfp inh (from the list above):
mol | Sfp inh
O=c1cc(-c2ccccc2)oc2c1ccc1ccccc12 | 45µM*
C[C@H](C(=O)OCO/N=[N+](\[O-])N1CCCC1)c1cccc2ccccc12 | 56µM*
COC(=O)/C=C/c1cc(O)ccc1O | 50µM*
N[C@H](C(=O)N[C@@H]1C(=O)N2C(C(=O)O)=C(Cl)CS[C@@H]12)c1ccccc1 | 35µM*!

# Next results.
mol | Sfp inh
COC(=O)N1C2CC3(C)CC(=O)CC1(C)C3c1ccccc12 (stereo unspecified) | -1%
C=C1CCN(C(Cc2ccccc2)C(=O)NCc2ccccc2)S(=O)(=O)c2ccccc21 (stereo unspecified) | 13%
CC(C)(C)C1=CC=C(C(C)(C)C)C(=O)C1=O | 1.6µM*
COC(=O)N1CC=CC1(C)C(=O)O (stereo unspecified) | 20%
CCCCCCCCCCCCCCCCCCc1ccc(C(=O)/C=C\C(=O)O)cc1 | 3%
CCN(CC)CCn1c(-c2ccccc2)nc2c(N3CCOCC3)nc(C)nc21 | 22%
Cc1cn([C@H]2CC(F)[C@@H](CO)O2)c(=O)[nH]c1=O (stereo partly specified) | 7%
CC(C)(C)OC(=O)NS(=O)(=O)NCc1ccco1 | 6%
CO/N=C(\C(=O)N[C@@H]1C(=O)N2C(C(=O)O)=C(COC(C)=O)CS[C@@H]12)c1csc(N)n1 | ?
CC[C@H](C)[C@H](NC(=O)[C@H](Cc1ccc(O)cc1)NC(=O)[C@H](Cc1cnc[nH]1)NC(=O)[C@H](CCCNC(=N)N)NC(=O)[C@H](CC(C)C)NC(=O)[C@H](C)NC(=O)[C@H](CO)NC(=O)[C@H](Cc1ccc(O)cc1)NC(=O)[C@H](Cc1ccc(O)cc1)NC(=O)[C@H](CCCNC(=N)N)NC(=O)[C@H](C)NC(=O)[C@H](CCSC)NC(=O)[C@H](CC(=O)O)NC(=O)[C@H](CCC(=O)O)NC(=O)[C@H](C)NC(=O)[C@@H]1CCCN1C(=O)[C@H](C)NC(=O)[C@H](CC(=O)O)NC(=O)[C@H](CCC(=O)O)NC(=O)CNC(=O)[C@@H]1CCCN1C(=O)[C@H](CC(N)=O)NC(=O)[C@H](CC(=O)O)NC(=O)[C@@H]1CCCN1C(=O)[C@H](CCCCN)NC(=O)[C@H](CO)NC(=O)[C@@H]1CCCN1C(=O)[C@@H](N)Cc1ccc(O)cc1)C(=O)N[C@@H](CC(N)=O)C(=O)N[C@@H](CC(C)C)C(=O)N[C@@H](CC(C)C)C(=O)N[C@H](C(=O)N[C@@H](CCCNC(=N)N)C(=O)N1CCC[C@H]1C(=O)N[C@@H](CCCNC(=N)N)C(=O)N[C@@H](Cc1ccc(O)cc1)C(N)=O)[C@@H](C)O | -21%
CC1(C)C=CC(=O)[C@]2(C)C1CC(=O)[C@]1(C)C2CC[C@@]2(C)C(c3ccoc3)OC(=O)C3OC321 (stereo partly specified) | -1%
CCCCCCCCCCOc1cc2c(=O)c(C(=O)OCC)c[nH]c2cc1OCC | -3%
COc1cc(N)c(Cl)cc1C(=O)OCCCN1CCCCC1 | 16%&2%
Cc1cc2oc(=O)cc(-c3ccccc3)c2c(C)c1-c1sccc1C=O | -24%
COc1cccc([C@H]2Oc3ccc(OC)cc3/C(=N\O[C@@H](C)c3cn([C@H](CO)Cc4ccccc4)nn3)[C@@H]2O)c1 | 17%&6%
CCCC[C@@H]1C[C@H]1C(NC(=O)c1ccco1)c1ccc(-c2ccccc2)cc1 (stereo partly specified) | 24%
CCCC[C@@H]1C[C@H]1C(NC(=O)c1ccco1)c1ccc(C(=O)OC)cc1 (stereo partly specified) | 3%
